Marburg entry inh: blocks Marburg virus binding to or entry into cells. AID 540276. Marburg virus pseudotyped entry inhibition, cell reporter; control for the full effect not named in the record; about a third of the inactives were read at about 46 µM. 1.8% of 300,000 active. Potency, µM (highest dose often 37.8 µM), inactives show at the top dose activity change, negative = inhibition, actives largely listed as inhibitors; active = well fitted inhibition curve with a large enough effect; inconclusive = small, poorly fitted or top-dose-only effect, or effect the other way; inactive = flat fitted curve, though single readings scatter; tested in HEK293 cells; about a fifth of its hits are not listed in these tables; note: % is set by controls: 0 for no effect and ±100 for the full control effect; luciferase read-out
StopGo reporter: FMDV 2A StopGo reporter, luciferase signal | human cells with a luciferase reporter of 2A StopGo recoding; control for the full effect not named in the record | Potency, µM (highest dose often 57.9 µM), for the others: at the highest dose signal change, negative = less light | AID 1159524 | 1.2% of 410,000 active; active = well fitted falling curve with a large enough effect; inconclusive = small, poorly fitted or top-dose-only effect; inactive = no such curve, though single readings can be large or run the other way; tested in HEK293T cells; note: % is set by controls: 0 for no effect and ±100 for the full control effect; nearly all actives have a fitted effect of over 45% in size; luciferase light after 4 h
Cruzain inh Det: cruzain (T. cruzi) inhibition with detergent. purified cruzain, Z-FR-AMC fluorescence, 0.01% Triton. 0.43% of 200,000 active. AID 1478. Potency, µM, without a hit: max response, negative = inhibition, usual class: inhibitors;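 note: plate controls were neutral wells for no effect and buffer without enzyme for full effect; nearly all actives have a fitted effect of over 40% in size; top concentration of the series not given in the record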
Target sequence (P25779 123-467 limits assumed): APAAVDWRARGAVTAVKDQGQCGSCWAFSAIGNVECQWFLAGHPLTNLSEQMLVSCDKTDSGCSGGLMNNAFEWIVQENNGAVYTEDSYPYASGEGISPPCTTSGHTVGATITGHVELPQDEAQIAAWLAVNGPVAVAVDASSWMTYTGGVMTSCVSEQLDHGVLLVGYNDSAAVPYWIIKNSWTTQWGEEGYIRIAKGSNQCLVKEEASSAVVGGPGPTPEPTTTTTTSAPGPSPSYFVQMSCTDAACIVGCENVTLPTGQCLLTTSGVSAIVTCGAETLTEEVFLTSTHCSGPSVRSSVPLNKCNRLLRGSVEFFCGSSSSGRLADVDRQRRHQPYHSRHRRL
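Cruzain (1.5 nM) preincubated 15 min at RT with compound in 100 mM sodium acetate pH 5.5, 5 mM DTT, 0.01% Triton X-100. Reaction started with 2 uM Z-FR-AMC; AMC fluorescence (ex 360/em 450 nm) change over 60 s gave rate.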
NS1 inh: influenza NS1 inhibition; S. cerevisiae slowed by influenza A NS1, growth recovery by OD600; Potency, µM (highest dose often 46.1 µM), inactives show top-dose activity, positive = more growth; 0.4% of 270,000 active; AID 2326; active means well fitted rising curve with a large enough effect; inconclusive means small, poorly fitted or top-dose-only effect; inactive means no such curve, though single readings can be large or run the other way; note: nearly all actives have a fitted effect of over 50% in size
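Read-out: OD600 growth recovery of NS1-expressing budding yeast. Cells grown overnight at 30C in -URA glucose medium, washed, resuspended and diluted 1:100 in 2% galactose assay medium, pH 6.0. Same strain lacking NS1 served as positive control.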
SARS PLP yeast: SARS-CoV PLP inhibition in yeast | S. cerevisiae expressing SARS-CoV PLpro, growth rescue; control for the full effect not named in the record | Potency, µM (top dose mostly 32.9 µM), without a hit: top-dose activity, positive = growth rescue | 0.19% of 330,000 active; active means well fitted rising curve with a large enough effect; inconclusive means small, poorly fitted or top-dose-only effect; inactive means no such curve, though single readings can be large or run the other way; note: 0% is about no effect; nearly all actives have a fitted effect of over 55% in size; growth read by luminescence after 48 h
LASV entry inh: blocks Lassa virus binding to or entry into cells | Lassa virus pseudotype entry inhibition, cell reporter; control for the full effect not named in the record | Potency, µM (doses to about 37.9 µM), for the others: at the top dose activity change, negative = inhibition, actives largely listed as inhibitors | 1.2% of 300,000 active; active means well fitted inhibition curve with a large enough effect; inconclusive means small, poorly fitted or top-dose-only effect, or effect the other way; inactive means flat fitted curve, though single readings scatter; tested in HEK293 cells; note: % is set by controls: 0 for no effect and ±100 for the full control effect; nearly all actives have a fitted effect of over 50% in size; luciferase read-out
RE007 growth inh: less growth of the S. pombe RE007 Vpr strain; 0.21% of 360,000 active; Potency, µM (highest dose often 92.2 µM), for the others: at the top dose activity change, negative = less growth; AID 651644; S. pombe RE007 Vpr strain, BacTiter-Glo ATP luminescence, 24 h; control for the full effect not named in the record; active = well fitted falling curve with a large enough effect; inconclusive = small, poorly fitted or top-dose-only effect; inactive = no such curve, though single readings can be large or run the other way;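 note: % is set by controls: 0 for no effect and ±100 for the full control effect; nearly all actives have a fitted effect of over 50% in size; the assay follows cell death caused by Vpr and the record does not say whether a fall means rescue or toxicity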
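Fission yeast strain RE007, carrying one chromosomally integrated HIV-1 vpr copy, was seeded at OD 0.01 in PMG+AL medium with 23 nL pinned compound. After 24 h at 30 °C and 99% humidity, viability was read by BacTiter-Glo luminescence.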
Cruzain noTriton: blocks cruzain activity in detergent-free assay; P25779; purified cruzain, Z-FR-AMC fluorescence, no detergent; AID 1476; Potency, µM, inactives show max response, negative = inhibition, usual class: inhibitors; 2.3% of 200,000 active;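 note: plate controls were enzyme without inhibitor for no effect and buffer without enzyme for full effect; nearly all actives have a fitted effect of over 40% in size; top concentration of the series not given in the record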
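Detergent-free condition (0.00005% Triton X-100) in acetate buffer pH 5.5 with DTT. 1.5 nM enzyme and compound were pre-mixed 15 min, then 2 uM Z-FR-AMC substrate added; reaction progress from fluorescence change between first and third reads (60 s).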
* = called active by the depositor; ? = inconclusive; . = no result given; & = joins results of further samples; [ ] = dose if it differs, or a comment. Unless noted, calls come from the whole dose curve; as a rule, active = well fitted curve in the direction sought with a large enough effect; inconclusive = small, poorly fitted or top-dose-only effect, or another doubt; inactive = no such curve, though single readings can be large; an effect the other way counts as inactive or inconclusive. Potency is the fitted concentration of half-maximal effect.

SMILES	Marburg entry inh	StopGo reporter	Cruzain inh Det	NS1 inh	SARS PLP yeast	LASV entry inh	RE007 growth inh	Cruzain noTriton
COc1cccc(NC(=O)Cn2c(=O)n(CC(=O)NCc3ccc(C)cc3)c(=O)c3sccc32)c1	-2%[46.1 µM]	-24%	-2.1%	.	.	4%[46.1 µM]	.	-6%
O=C(c1cc2nc(-c3ccco3)cc(C(F)(F)F)n2n1)N1CCN(c2ccccn2)CC1	-21%&-21%	?	-1.6%	-25%	-9%	?	-11%	20%
CC1=C(C(=O)Nc2ccccc2)C(c2cccs2)C(C#N)=C(SCC#N)N1 (stereo not given)	-10%[46.1 µM]	-21%	-13%	?	-1%	8%	23%	?
O=C(CN1CCN(S(=O)(=O)c2ccc(Br)cc2)CC1)N/N=C/c1ccncc1	1%[46.1 µM]	23%	.	6%	0%	-3%	-1%	.
CC(Sc1nnc(-c2cccs2)n1-c1ccccc1)C(=O)NCc1ccco1 (stereo not given)	-27%	?	1.3%	9%	6%	?	14%	-4%
c1cc(Nc2ncnc3sc4c(c23)CCC4)ccn1	-3%	-16%	.	5%	-1%	18%	-15%	.
COc1ccc(NC(=S)N2CCN(S(C)(=O)=O)CC2)cc1	0%[46.1 µM]	9%	.	-5%	-3%	8%[46.1 µM]	4%	.
CCN(C(=O)CSc1nc2cc(C(=O)O)ccc2c(=O)n1-c1ccccc1F)C1CCS(=O)(=O)C1 (stereo not given)	?	-10%	.	.	.	12%	23%	.
CC(C)C(NC(=O)c1ccc(Cl)c([N+](=O)[O-])c1)C(=O)NCc1ccccn1 (stereo not given)	-1%	0%	.	.	-4%	0%	-24%	.
OCCNCCCCOc1ccccc1F	?	13%	5.6%	3%	0%	23%	-18%	0%
COC(=O)c1ccc(/C=C2/SC(=S)N(CCC(=O)N3CCOCC3)C2=O)cc1	?	-10%	.	3%	2%	?	10%	.
CC(=O)N1CCc2cc(S(=O)(=O)NC(CC(C)C)C(=O)NCc3ccccc3Cl)ccc21 (stereo not given)	?	19%	-2.2%	.	.	9%[46.1 µM]	.	-2%
O=C(CCn1c(=O)sc2ccccc21)Nc1ccon1	7%	.	0.2%	2%	10%	12%	-16%	21%
Cc1cc2c(cc1S(=O)(=O)NC1CCCCC1C)OCC(=O)N2 (stereo not given)	.	22%	.	-6%	?	.	9%	.
Cc1ccc(S(=O)(=O)NC(C)C(=O)N2CCOCCOCCOCC2)cc1 (stereo not given)	?	3%	.	5%	0%	-7%	-1%	.
Cc1ccc(S(=O)(=O)N2C(=O)[C@@H]3Cc4ccccc4CN3C2=O)cc1	11%[46.1 µM]	?	.	1%	-1%	13%[46.1 µM]	49%	.
Cc1nc(N2CCOCC2)c2c(C(=O)N3CCN(c4cc(Cl)ccc4C)CC3)c(C)oc2n1	.	-18%	-3.4%	.	.	-16%[46.1 µM]	.	?
O=c1c2ccccc2nnn1CSc1nc2ccccc2c(=O)n1CCCO	?	-21%	.	.	-1%	13%[46.1 µM]	1%	.
O=C(COc1ccccc1[N+](=O)[O-])N/N=C/c1cccs1	?	14%	-3.6%	0%	-6%	21%	3%	-5%
FC(F)(F)c1nnc2sc(-c3ccco3)nn12	-11%	-4%	1.5%	10%	1%	1%	-12%[3.69 µM]	-4%
COc1ccccc1CNC(=O)N[C@@H](Cc1ccccc1)C(=O)O	-2%	0%	4.2%	?	-7%	-5%	18%	8%
CCC(c1nnnn1Cc1ccc(OC)cc1)N(CCCO)Cc1cc2cc3c(cc2[nH]c1=O)OCO3 (stereo not given)	2%	-23%	-4.9%	-4%	0%	?	-12%	7%
COc1ccccc1N1CCN(c2nc3c(C)cccn3c(=O)c2C=O)CC1	-4%	-33%	-5.3%	-58%	?	-30%	18%	-4%
COc1ccc(C(=O)O)cc1S(=O)(=O)NCc1ccncc1	-1%[46.1 µM]	0%	.	.	2%	24%[46.1 µM]	-1%	.
O=C(CCNC(=O)Cn1ccc2ccccc2c1=O)NCCCN1CCN(c2ccc(F)cc2)CC1	3%&5%	-18%	3.2%	-11%	0%	3%	-12%	3%
Fc1ccc(Nc2nc(Oc3ccc4c(c3)OCO4)nc(N3CCOCC3)n2)c(F)c1	?	-10%	1.2%	-7%	-2%	-17%	-12%	-12%
O=C(CNC(=O)c1sc2ccccc2c1Cl)NC1CC1	27%[46.1 µM]	30%[activator]	.	-3%	0%	21%[46.1 µM]	-2%	.
CC1(C)C2CC[C@]1(C)C(=O)N(CCCCN1CCN(c3ccccn3)CC1)C2=O	?	-5%	.	2%	-2%	26%[46.1 µM]	-7%	.
O=C(NCC1CCCO1)c1cc(S(=O)(=O)N2CCCC2)c(Cl)cc1Cl (stereo not given)	?	-11%	.	1%	0%	-42%	-7%	.
O=C(CCn1c(=O)oc2ccccc21)Nc1nc2ccccc2s1	.	2%	-8.1%	-10%	-14%	.	-10%	10%
CC(C)OC(=O)COc1ccc(-c2ccccc2)cc1	0%	38%[activator]	-2.0%	1%	-22%	18%	-6%	-4%
CC1CCN(CC(=O)Nc2ccc(N3CCCCCC3)cc2)CC1	?	-20%	.	-3%	0%	-23%[46.1 µM]	-6%	.
COc1ccc(C)cc1NC(=O)CSc1ccc(-c2ccccn2)nn1	?	?	-4.6%	-126%	-16%	?	-19%	-4%
O=C(NCCC1CCCCN1S(=O)(=O)c1ccccc1)C(=O)Nc1ccc(F)cc1 (stereo not given)	?	4%	.	.	-1%	?	2%	.
O=C(CSc1nnc(Cc2ccccc2)n1-c1ccc(F)cc1)N1CCOCC1	3%	.	6.2%	7%	4%	6%	11%	23%
CC(=O)N1CCN(C(=O)c2ccco2)CC1	3%[46.1 µM]	0%	.	3%	2%	-16%[46.1 µM]	-4%	.
COCC1CCN(C(=O)c2ccc3oc(Cc4ccccc4)nc3c2)C1 (stereo not given)	-5%	36%[activator]	.	-4%	6%	-16%	10%	.
CC(C)n1nnc(-c2ccc(OCc3ccccc3F)cc2)n1	.	49%[activator]	.	-45%	-7%	.	-23%	.
CCC(C(=O)OC)n1cnc2scc(-c3ccc(C)c(C)c3)c2c1=O (stereo not given)	.	-20%	.	-129%	-23%	.	4%	.
CN(c1ccc(C(=O)NCC2CCCO2)cc1)S(=O)(=O)c1ccccc1 (stereo not given)	13%	11%	4.2%	15%	3%	-26%	19%	2%
COc1ccccc1NS(=O)(=O)c1cc(NC(=O)Cc2n[nH]c(=O)c3ccccc23)ccc1Cl	?	?	.	.	-1%	?	-6%	.
CC1=CC(O)C(O)C2(C)C1CC1OC(=O)C(O)C3C(C)C(O)C4(O)OCC13C42 (stereo not given)	?	-8%	.	.	.	?	7%	.
CCOCCCNC(=O)c1c[nH]c2ccc(C)cc2c1=O	-1%	-29%	-2.1%	-1%	-4%	?	-1%	3%
CC(=O)Nc1cccc(C(=O)O)n1	4%[46.1 µM]	-5%	.	11%	0%	13%	-25%	.
COCCCn1nnnc1SCC(=O)Nc1nc2ccccc2s1	30%[46.1 µM]	-2%	.	7%	2%	-16%[46.1 µM]	-5%	.

Another view of part of the listing above:
> CC1=CC(O)C(O)C2(C)C1CC1OC(=O)C(O)C3C(C)C(O)C4(O)OCC13C42 (stereo not given)
  Marburg entry inh: ?; StopGo reporter: -8%; Cruzain inh Det: .; NS1 inh: .; SARS PLP yeast: .; LASV entry inh: ?; RE007 growth inh: 7%; Cruzain noTriton: .
> COc1ccc(C)cc1NC(=O)CSc1ccc(-c2ccccn2)nn1
  Marburg entry inh: ?; StopGo reporter: ?; Cruzain inh Det: -4.6%; NS1 inh: -126%; SARS PLP yeast: -16%; LASV entry inh: ?; RE007 growth inh: -19%; Cruzain noTriton: -4%

(next part)
SMILES	Marburg entry inh	StopGo reporter	Cruzain inh Det	NS1 inh	SARS PLP yeast	LASV entry inh	RE007 growth inh	Cruzain noTriton
O=C(CSCc1ccc(F)cc1)Nc1ccccc1C(=O)N1CCOCC1	?	0%	-0.3%	8%	-7%	-7%	16%	-2%
Cc1ccc(/C=C/C(=O)Nc2ccc(S(N)(=O)=O)cc2)o1	3%	-11%&-13%	-13%	1%	1%	6%	-4%	-6%
Cc1cccc(CN2CCC(Oc3ccc(C(=O)N4CCCCC4)cc3)CC2)c1	.	-25%	.	6%	23%	.	-5%	.
O=C(Cc1c[nH]c2ccccc12)Nc1nnc(C2CC2)s1	?	-1%	.	-6%	6%	3.5µM*	?	.
O=C(NCC(=O)N1CCCC1)c1cccs1	2%	.	2.9%	-4%	1%	22%	3%	-18%
CCOC(=O)c1cc(-c2csc(-c3cccc(Cl)c3)n2)on1	14%	6%	.	1%	1%	?	-8%	.
CCOc1ccc(NC(=O)CC2C(=O)N(C)C(=S)N2Cc2ccco2)cc1 (stereo not given)	?	-16%	-6.0%	5%	?	1%	15%	1%
COc1ccc(/C=N/NC(=O)Cn2c(Cc3ccc(OC)c(OC)c3)nc3ccccc32)cc1	?	-16%	-1.6%	-14%	-27%	13%	-1%	18%
Cc1cc(C)c2oc(=O)cc(CN3CCN(Cc4ccccc4)CC3)c2c1	.	-17%	.	-1%	1%	.	3%	.
CCC1CCCCN1C(=O)COc1ccc(F)cc1 (stereo not given)	?	-11%	.	-2%	0%	0%[46.1 µM]	-8%	.
COc1cc(-c2[nH]nc3c2C(c2ccoc2)C(C#N)=C(N)O3)cc(OC)c1OC (stereo not given)	-4%	0%	-9.2%	20%	9%	-7%	20%	-10%
Cc1nc(C)c(-c2csc(Nc3ccccn3)n2)s1	.	-24%	.	-84%	-21%	.	?	.
Cc1ccc(NC(=O)C(=O)NCC(c2ccc3c(c2)OCO3)N2CCOCC2)cc1C (stereo not given)	.	-18%	1.9%	.	.	?	.	4%
CC(C)[C@H](NC(=O)OC(C)(C)C)C(=O)NCC1CCC(C(=O)N[C@@H](Cc2ccccc2)C(=O)O)CC1 (stereo not given in full)	-4%	-2%	.	-3%	0%	?	-2%	.
CCOC(=O)CNC(=S)NN(C)C	-4%[46.1 µM]	4%	.	-2%	1%	-6%[46.1 µM]	-5%	.

Source: PubChem BioAssay
